Screening data: PubChem BioAssay, ICCB-Longwood Screening Facility, Harvard Medical School
HCMV UL50-53 inh – inhibitors of HCMV UL50-UL53 interaction, biochemical, HTRF | HCMV UL50-UL53 nuclear egress complex (human cytomegalovirus) | normalized percent inhibition | inhibition, % (concentration not given with the values) | 0.15% of 190,000 active | AID 1918969, 2023;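 active means both replicates at 50% or more, plus weaker picks with an unusually low signal ratio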;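 further: stock transfer was 100 nL into about 20 µL; 0% = negative control wells and 100% = wells with untagged competitor protein; inactives centre near -12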
Sa growth inh – S. aureus growth inhibition at 42 and 30 °C, primary screen, LtaS inhibitor project, RN4220, two temperatures; OD600, 20 h, 42 °C; active compounds read low; relative growth, % (concentration not given with the values); 0.53% of 170,000 active; AID 720641, 2013;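 active means growth at 42 °C up to 50% and 20 or more points under that at 30 °C, or under 10% at both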;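 further: 300 nL library stock went into each well; scaled to the means of positive and negative controls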
GIV Gai3 FP – inhibitors of GIV peptide binding to Galpha-i3, primary screen, biochemical, fluorescence polarization, FITC-GIV GBA peptide, rat Galphai3. 0.42% of 210,000 active. percent of control (FP), % (no concentration beside the values). 90 min; active compounds read low; scaled: aluminum fluoride 0%, vehicle 100%. Guanine nucleotide-binding protein G(i) subunit alpha-3 (Rattus norvegicus), P08753. AID 1224905, 2016;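 active means replicate mean at 85% of control or lower, very high polarization wells dropped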;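 further: wells of about 15 µL received 100 nL stock; the first replicate is given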
Target sequence (P08753 whole entry, looked up): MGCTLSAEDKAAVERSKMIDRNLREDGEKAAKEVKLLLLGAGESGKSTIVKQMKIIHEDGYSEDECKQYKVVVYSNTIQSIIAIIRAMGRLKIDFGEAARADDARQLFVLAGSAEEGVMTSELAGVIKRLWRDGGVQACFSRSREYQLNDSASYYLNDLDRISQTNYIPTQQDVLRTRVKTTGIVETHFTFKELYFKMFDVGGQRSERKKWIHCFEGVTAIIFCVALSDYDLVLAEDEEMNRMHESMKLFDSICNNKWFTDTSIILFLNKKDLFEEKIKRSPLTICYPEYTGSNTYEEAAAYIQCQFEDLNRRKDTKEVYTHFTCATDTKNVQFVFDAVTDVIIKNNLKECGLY
Sa growth inh second temp – further read-out of Sa growth inh, marked with its call; relative growth, %; measured here: growth at 30 °C;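 optical density after 20 h as mean of two plates; 100% = untreated growth and lower means inhibition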
Starred values were filed as active, the others as inactive; / = not tested or not shown; & = joins results of further samples.

SMILES	HCMV UL50-53 inh	Sa growth inh	Sa growth inh second temp	GIV Gai3 FP
CCCCCc1ccc(CC(=O)O)cc1	-16	98	99	99
NC(=O)C1(N2CCCCC2)CCN(c2ccc(NC(=O)c3ccccc3Cl)c(C(=O)O)c2)CC1	28	/	/	102
COc1ccc(C(=O)N2N=C(C)CC2(O)c2ccc(Br)cc2)cc1 (centres undefined)	-9	/	/	103
COc1cc(-c2nnc(NC(=O)CCS(=O)(=O)c3ccc(C)cc3)o2)cc(OC)c1OC	-6	95	91	107
O=C(c1ccc(Cl)cc1)N1CCC(c2ccncc2)CC1	/	82	89	96
C=CCN(CC=C)C(=O)COc1ncnc2sccc12	8	83	96	/
CCOC(=O)c1ccc2[nH]c3c(c2c1)CCCC3NC=O (centres undefined)	/	75	75	102
O=C(c1ccncc1)N(c1ccccc1)c1ccccc1	4	96	98	/
Cc1noc(-c2ccccc2OCC(=O)Nc2nnc(C(C)C)s2)n1	8	/	/	104
O=C(c1ccc2c(c1)OCO2)N1CCC(c2noc(-c3ccc(S(=O)(=O)N4CCCC4)cc3)n2)CC1	-9	/	/	100
Cn1c(=O)c2sccc2n2c(CCC(=O)Nc3ccccc3)nnc12	-14	104	90	101
COc1ccccc1C1CCN(S(=O)(=O)c2ccccc2Br)CC1	-34	100	87	99
COC(=O)c1ccc(Sc2ccc(C)cc2)c(N)c1	-21	101	96	103
COc1ccccc1CCNC(=O)c1ccc(COc2ccccc2Cl)o1	-1	66	72	/
CC(OC(=O)C1CCN(c2ccc(C(F)(F)F)cn2)CC1)C(=O)Nc1cccc(C#N)c1 (centres undefined)	-37	79	81	/
O=C(OCC(=O)N1CCCCC1)c1ccc(Br)o1	-19	123	91	/
CCc1c(N)c2ccccc2[nH]c1=O	-11	90	83	99
OC1(c2cccc(F)c2)CCCCC1	3	126	100	108
COc1ccc(N/C=C(\C#N)c2nc(-c3cc4cc([N+](=O)[O-])ccc4oc3=O)cs2)c(OC)c1	-25	/	/	101
COC(CNC(=O)c1ccc2nc(-c3ccccc3)c(-c3ccccc3)nc2c1)OC	/	96	97	109
CC1CN(C(=O)CCCC(=O)N2CC(C)OC(C)C2)CC(C)O1 (centres undefined)	-15	91	90	102
Cc1nc2nc(N(Cc3cccc(F)c3)S(=O)(=O)c3ccccc3)nn2c(C)c1Cl	-4	/	/	99
CCCCn1cnc2cc(NCc3ccc(Br)cc3)ccc21	/	7.6*	0.3*	108
CCOC(=O)C1CCN(CC(=O)Nc2cccc3cccnc23)CC1	-26	97	92	104
Cc1ccc(C)n1-c1nnc(N2CCCC(C(=O)NCCc3c[nH]c4ccccc34)C2)s1 (centres undefined)	-4	/	/	98
Next section
SMILES	HCMV UL50-53 inh	Sa growth inh	Sa growth inh second temp	GIV Gai3 FP
Cc1ccc(NC(=O)c2ncn(-c3ccccc3)n2)c(Cl)c1	-5	120	95	102
C=Cc1ccc(CSc2nnc3n(C)c(=O)c4sccc4n23)cc1	-27	/	/	100
C=CCn1c(SCCC(=O)O)nnc1-c1cccnc1	1	73	98	105
Cc1ccc(CCNC(=O)c2cc3c(=O)oc4ccc(C)cc4c3s2)cc1	/	93	90	100
COc1ccc(-c2cc(=O)c3cc(F)ccc3o2)cc1	49	109	96	105
COc1ccccc1C(=O)Nc1c(-n2cnnc2)nn(C)c1C	-16	/	/	99
COCCCn1c(=N)c(C(=O)NC2CCCCC2)cc2c(=O)n3ccccc3nc21	-98	111	87	106
CC(C)(C)c1ccc(C(=O)N2CCCCCC2)cc1	-16	109	91	107
C=CCSc1nc(N)c(C(=O)OCC)cc1C#N	11	70	78	/
CCn1cc2nc(SCc3cccc(C(F)(F)F)c3)n(Cc3ccc(Cl)cc3)c(=O)c2n1	/	114	96	103
Cc1nc2nc[nH]n2c(=O)c1Cc1ccccc1	-19	/	/	96
O=C(Cn1[nH]c(=O)c2ccccc2c1=O)NCc1ccncc1	-34	99	95	/
COc1cc(Cc2nnc(C(=O)NC(C)C)o2)cc(OC)c1OC	/	89	88	101
FC(F)(F)Oc1ccccc1-c1nnc(-c2ccncc2)o1	1	106	48	104
Cc1cc2c(cc1C)NC(C(F)(F)F)=CC(c1cccs1)=N2	/	106	92	108
CCN(CC)C(=O)C1CCCN(Cc2ccccc2)C1 (centres undefined)	5	104	103	102
CCN1c2ccccc2-c2nc(SCC(=O)Nc3cc(F)ccc3F)ncc2S1(=O)=O	/	118	97	107
Cc1cc(C)c2c(n1)SCCN2C(=O)Nc1ccc2c(c1)OCCO2	0	/	/	109
COc1ccc(/C=C/C(=O)NCc2ccccn2)cc1OC	-24	102	83	106
CCOC(Cn1c(CC)nc2ccccc21)OCC	-1	103	95	112
CC(C)(C)NC(=O)c1cc(S(=O)(=O)N2CCCCC2)ccc1Cl	-24	91	83	/
CSc1ncc(C(=O)NCc2ccc(C)cc2)c(C)n1	/	121	88	106
Cc1n[nH]c(C)c1CCc1nc2c3ccccc3nc(=S)n2[nH]1	-22	102	68	103
COc1ccc(NC(=O)CC2Sc3ncnn3C2=O)cc1 (centres undefined)	-20	59	43	98
O=C(COc1ccc(Cl)cc1)NCCc1nc(-c2ccccc2)no1	-17	/	/	106
More entries:
SMILES	HCMV UL50-53 inh	Sa growth inh	Sa growth inh second temp	GIV Gai3 FP
CCCCNC(=O)C(CC)N1C(=O)CCCc2ccccc21 (centres undefined)	-9	/	/	105
CC1CC(C)CN(S(=O)(=O)c2cccc(C(=O)Oc3ccc4c(c3)OCO4)c2)C1 (centres undefined)	-5	101	90	/
Cc1ncc(CO)c(/C=N/N=C/c2c(O)ccc3ccccc23)c1O	-4	115	89	117
O=C(COc1ccc2c(-c3ccccc3)cc(=O)oc2c1)c1ccccc1	/	102	80	100
O=C(c1ccccc1Br)N1CCC(c2nc3ccccc3o2)CC1	-36	97	84	100
Fc1ccc(CSc2ncnc3c2cnn3-c2ccccc2)cc1	3	99	93	105
COc1ccc(-c2noc(CCC(=O)Nc3ccncc3)n2)cc1OC	-5	/	/	96
CCCCN(C)C(=O)Nc1cn(C)c(=O)c2ccccc12	/	85	85	98
Cc1occc1C(=O)N/N=C/c1ccc(C(C)(C)C)cc1	-22	87	88	110
O=C(OCc1cc(=O)n2ccsc2n1)c1ccc(NS(=O)(=O)c2ccc3c(c2)OCCO3)cc1	-7	81	93	/
COc1cccc(C(NC(=O)c2ccccc2)c2ccc3cccnc3c2O)c1 (centres undefined)	-15	97	80	103
COc1ccc(N2CCN(C(=O)C3CCN(c4nc5ccc(C)cc5[nH]4)CC3)CC2)cc1	/	92	74	100
Cc1sc2nc(SCc3ccccc3)n(C)c(=O)c2c1C	4	89	89	103
Clc1ccc(COc2ccncc2)c(Cl)c1	-150	108	85	98
CCOC(=O)c1cc(-c2ccccc2)n(CCCC(=O)Nc2ccc(C)cc2C)c1C	/	103	80	101
Cc1ccccc1N1C(=O)CC(Nc2ccc3c(c2)OCO3)C1=O (centres undefined)	-39	98	95	100
CCOC(=O)N1CCN(c2nc(-c3ccccc3)no2)CC1	0	95	89	103
COCCN1Cc2cccc(C(=O)NCCc3ccccc3)c2C1=O	-19	85	77	106
COc1ccc(/C(C#N)=C/C(=O)O)cc1	-27	/	/	101
CC(C)(C)NC(=O)Nc1cnccc1C(F)(F)F	-22	86	87	101
CC(=O)N1CCCSc2ccc(S(=O)(=O)Nc3ccc(S(N)(=O)=O)cc3)cc21	-27	/	/	100
NC(=O)N/N=C/c1ccc(-c2ccc(Cl)cc2)o1	-42	93	86	97
CC(NC(=O)c1ccc(CSc2ccccc2)cc1)c1ccccc1 (centres undefined)	-2	86	89	/
N#Cc1cc(Oc2ccc(F)cc2)c(-n2nnc3ccccc32)cc1C#N	-13	100	89	/
O=C(CSc1nc2ccccc2n1Cc1ccccc1Cl)NCc1ccccc1	/	88	83	102

In the list so far, these contain a furan ring, fused or not:
SMILES	HCMV UL50-53 inh	Sa growth inh	Sa growth inh second temp	GIV Gai3 FP
COc1ccccc1CCNC(=O)c1ccc(COc2ccccc2Cl)o1	-1	66	72	/
O=C(OCC(=O)N1CCCCC1)c1ccc(Br)o1	-19	123	91	/
Cc1occc1C(=O)N/N=C/c1ccc(C(C)(C)C)cc1	-22	87	88	110
NC(=O)N/N=C/c1ccc(-c2ccc(Cl)cc2)o1	-42	93	86	97

Continued.
SMILES	HCMV UL50-53 inh	Sa growth inh	Sa growth inh second temp	GIV Gai3 FP
O=C(NCc1ccccc1)NCc1cccn1Cc1ccccc1	-26	102	81	103
COc1ccc(-c2nn(-c3ccc(F)cc3F)c3c2cnc2ccc(F)cc23)cc1	/	92	91	97
COc1cccc2sc(N(Cc3cccnc3)C(=O)Cc3ccccc3)nc12	/	80	75	100
O=C(c1cc(-c2ccc3c(c2)OCCO3)on1)N(Cc1ccccc1)C1CCS(=O)(=O)C1 (centres undefined)	-12	/	/	98
O=C(Cn1ncc2c(=O)oc3ccccc3c21)Nc1ccc2c(c1)OCCO2	-11	101	87	103
COc1ccc(-c2cc(OC(=O)c3ccco3)cc3sc(=O)oc23)cc1	7	83	72	100
O=c1c(-c2ccc(I)cc2)[n+]([O-])c2ccccc2n1O	-142	158	83	115
CC(NS(=O)(=O)c1ccc2c(c1)CCC2)c1ccc(-n2ccnc2)cc1 (centres undefined)	-12	94	87	/
CC1CCCC(NC(=O)C2CCN(C(=O)N(C)C)CC2)C1C (centres undefined)	/	87	90	101
CC1(C(=O)NC2CCCCC2)Cn2c(cc3sccc32)C(=O)N1Cc1ccccc1 (centres undefined)	-16	/	/	104
COc1ccccc1NC(=O)CSc1nnc2c3ccccc3n(C(C)C)c2n1	-42	95	79	100
CCNc1nc2c(ncn2[C@H]2C[C@H](O)[C@@H](CO)O2)c(=O)[nH]1	-17	/	/	107
COc1ccccc1C(=O)On1c(C)nc2ccccc2c1=O	31*	/	/	98
CCOc1ccc2c(c1)S/C(=C1\Oc3ccccc3OC1=O)N2C	/	98	84	103
COc1ccc(N2C(=O)CCC(C(=O)Nc3ccccn3)C2c2ccc(OC)c(OC)c2)cc1 (centres undefined)	-10	106	96	103
Cn1c(CCNC(=O)c2cccs2)nnc1SCC(=O)N1CCN(c2ccccc2)CC1	-19	106	95	103
Cc1ccccc1-n1c(=O)c2c3c(sc2n2c(SCC(N)=O)nnc12)CCCC3	-11	/	/	106
Cn1cnc(S(=O)(=O)Nc2ccc3c(c2)C(=O)OC3)c1	-20	90	89	106
COc1ccccc1-c1nc(CNC(=O)NC2CCCCC2)c(C)o1	/	111	88	104
Cn1cnc(S(=O)(=O)Nc2ccc(-c3nc4ccccc4[nH]3)cc2)c1	2	/	/	105
CN(CC(=O)N1CCN(c2ccccn2)CC1)S(=O)(=O)c1ccccc1	4	104	102	97
Cc1oc2ccc(NS(=O)(=O)c3cccc([N+](=O)[O-])c3)cc2c1C(=O)OC(C)C	-22	/	/	105
CC1=C(C(=O)OC2CCCC(C)C2)C(c2ccccc2OCc2ccccc2)NC(=O)N1 (centres undefined)	-4	/	/	102
Cc1ccc(Nc2ncc(C(=O)N3CCC(C)CC3)c3ccccc23)cc1Cl	-29	/	/	98
NC(=O)C12CC3CC(CC(C3)C1)C2	-21	77	89	/

Compound profiles, as listed above.
Listed for O=C(OCc1cc(=O)n2ccsc2n1)c1ccc(NS(=O)(=O)c2ccc3c(c2)OCCO3)cc1 : HCMV UL50-53 inh = -7; Sa growth inh = 81; Sa growth inh second temp = 93; GIV Gai3 FP = /
Listed for O=C(COc1ccc2c(-c3ccccc3)cc(=O)oc2c1)c1ccccc1 : HCMV UL50-53 inh = /; Sa growth inh = 102; Sa growth inh second temp = 80; GIV Gai3 FP = 100

Remaining list, next part.
SMILES	HCMV UL50-53 inh	Sa growth inh	Sa growth inh second temp	GIV Gai3 FP
COc1ccc(CCNC(=O)Cc2noc3ccccc23)c(OC)c1	7	109	103	108
Cc1ccc(Cc2ccc(Cl)nn2)cc1	-12	/	/	100
O=C(NCc1cccs1)c1ccc2c(c1)ncn2C1CCCC1	-1	107	85	107
Cc1ccsc1-c1nc(CSCC(=O)NCc2cccnc2)c(C)o1	-34	86	81	102
COc1cc(NS(=O)(=O)c2c(C)oc3c(F)c(F)c(F)c(F)c23)cc(OC)c1OC	-65	89	87	108
Cc1cc(C)n(CC(=O)NCc2ccc(F)cc2)c(=O)c1S(=O)(=O)c1ccc(Br)cc1	-19	/	/	106
OC(CNc1nc(-c2cccnc2)nc2ccccc12)c1ccccc1 (centres undefined)	3	97	83	/
CCOc1ccccc1CNC1CC(C)(C)NC(C)(C)C1	6	91	88	/
CCCCNC(=O)c1ccccc1NC(=O)CN(c1ccccc1)S(=O)(=O)N(C)C	-19	98	91	101
CCC1(c2ccccc2)NC(=O)N(C)C1=O (centres undefined)	-32&-16	91	90	99
O=C(NCc1cccn1Cc1ccccc1)Nc1ccc(Br)cc1	-28	/	/	103
O=C(CSc1nnc2n(Cc3ccco3)c(=O)c3sccc3n12)NCc1ccco1	7	/	/	104
O=C(CCc1ccccc1)N1CCC(N2CCN(Cc3cccc(F)c3)C(=O)C2=O)CC1	-6	/	/	101

3 entries picked at random from the list so far:
SMILES	HCMV UL50-53 inh	Sa growth inh	Sa growth inh second temp	GIV Gai3 FP
CCCCNC(=O)c1ccccc1NC(=O)CN(c1ccccc1)S(=O)(=O)N(C)C	-19	98	91	101
Cc1ccc(Cc2ccc(Cl)nn2)cc1	-12	/	/	100
O=C(CCc1ccccc1)N1CCC(N2CCN(Cc3cccc(F)c3)C(=O)C2=O)CC1	-6	/	/	101

Compounds were not picked by outcome; 0.82% or so of the library scored in one or more.
